Screening results (PubChem BioAssay)
KCNQ2 pot – potentiators of rat KCNQ2 potassium channel. Potassium voltage-gated channel subfamily KQT member 2 (Rattus norvegicus), O88943. CHO-K1 KCNQ2, FluxOR thallium flux fluorescence; stronger effect = higher value. B-score at 10 µM. AID 2239, 2010. 310,000 tested, 0.54% active;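 active means fluorescence ratio B-score at least 3 SD of library B-scores, with initial fluorescence B-score within 3 SD, cut at about 5.3 in these data; same plate scores as AID 2156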;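 further: B-score of peak minus minimum over baseline fluorescence ratio after K+ and Tl+ stimulus; positive B-score means potentiation of KCNQ2 with more thallium influx and brighter signal; only the inactives scoring about 0 or higher are listed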
Target sequence (O88943 whole entry, looked up): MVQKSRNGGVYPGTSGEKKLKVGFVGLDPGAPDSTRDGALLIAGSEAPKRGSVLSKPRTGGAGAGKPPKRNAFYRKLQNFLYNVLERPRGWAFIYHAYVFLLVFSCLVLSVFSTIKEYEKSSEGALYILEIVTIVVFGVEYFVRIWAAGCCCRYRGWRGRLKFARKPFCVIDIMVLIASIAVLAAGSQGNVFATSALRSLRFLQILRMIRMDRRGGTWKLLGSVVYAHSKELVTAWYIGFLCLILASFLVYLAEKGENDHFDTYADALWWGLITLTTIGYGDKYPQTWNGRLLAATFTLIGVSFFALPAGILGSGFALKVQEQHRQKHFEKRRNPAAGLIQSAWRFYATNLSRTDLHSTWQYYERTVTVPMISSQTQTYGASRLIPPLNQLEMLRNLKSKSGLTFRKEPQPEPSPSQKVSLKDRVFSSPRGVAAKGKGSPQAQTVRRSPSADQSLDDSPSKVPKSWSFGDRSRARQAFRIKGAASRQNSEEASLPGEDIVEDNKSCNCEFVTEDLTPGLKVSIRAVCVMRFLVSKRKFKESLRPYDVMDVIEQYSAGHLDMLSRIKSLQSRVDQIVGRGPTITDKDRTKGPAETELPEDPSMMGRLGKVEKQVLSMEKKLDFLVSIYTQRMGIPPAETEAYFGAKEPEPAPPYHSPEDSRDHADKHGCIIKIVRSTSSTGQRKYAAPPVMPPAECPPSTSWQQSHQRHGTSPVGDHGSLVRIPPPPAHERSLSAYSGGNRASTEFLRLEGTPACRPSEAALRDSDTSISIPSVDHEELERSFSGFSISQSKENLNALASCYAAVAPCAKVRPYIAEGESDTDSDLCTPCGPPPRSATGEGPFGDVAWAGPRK
KCNQ2 pot baseline – recorded beside KCNQ2 pot, whose call it bears; B-score; compound at 10 µM; measured here: initial fluorescence intensity artifact check;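 brightness before thallium and not channel activity; 0 = typical well and far values either way flag optical interference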
* marks the source's active call; other numbers are inactive results. These rows are one share of the data, so the mix of outcomes need not match the whole.

SMILES	KCNQ2 pot	KCNQ2 pot baseline
CCOCc1nnc(NC(=O)COc2ccc3c(c2)OCO3)s1	1.4	-3.4
COc1ccc(C2=CC(=O)CCC2)cc1	0.78	1.9
CC1(C)C(N(O)C(=O)Nc2ccccc2)N(c2cccc(Cl)c2)C(=O)N1O (stereo not given)	0.82	0.01
COc1cccc(OC)c1C(=O)NC(=S)Nc1ccc2c(c1)C(=O)N(C)C2=O	0.17	-0.49
Cc1ccc(C(O)(C(=O)NNS(=O)(=O)c2ccc(C)cc2)c2ccc(C)cc2)cc1	2	-0.14
Cc1ccccc1CNC(=O)c1cc2ccccc2o1	0.42	0.04
C=CCC1NS(=O)(=O)OC2CCCCC12 (stereo not given)	1	-0.46
Cc1cc(C)cc(NC(=O)C2CCCN(c3nc(C)cc(C)n3)C2)c1 (stereo not given)	0.69	-0.27
COc1cccc(C2CC(=O)N3CN(c4cccc(Cl)c4C)CSC3=C2C#N)c1OC (stereo not given)	0.27	2.2
COc1ccccc1NC(=O)c1ccc(NS(=O)(=O)c2ccc(F)c(F)c2F)cc1	1	0
O=C(Cn1c(-c2cscn2)nc2ccccc21)Nc1ccc2ccccc2c1	0.07	0.13
CCN(CC)C(=O)CN(C#N)c1nc(Cl)nc(N(C)C)n1	0.02	-1.5
CCOc1ccccc1CN1CCN(Cc2ccc(C)o2)C(CCO)C1 (stereo not given)	2.5	-1.8
Cc1ccc(NC(=S)NC(=O)c2ccc(Br)o2)c(C)c1	1.9	0.9
COc1ccccc1-n1c(C)nc2cc(C(=O)NCCN3CCOCC3)ccc21	0.87	0.61
CC(C)(C)NC(=O)c1cccc(NC(=O)Cc2cccs2)c1	0.8	0.6
COC(=O)C1=C(N)Oc2cc(C)[nH]c(=O)c2C1c1ccc(Cl)cc1 (stereo not given)	0.93	1.2
COc1c(F)cc2[nH]c3c(c2c1F)CCNC3=O	0.42	-0.42
CC1CN(C(=O)c2ccc(NS(=O)(=O)c3ccc(F)cc3)cc2)CC(C)O1 (stereo not given)	2.7	0.01
CC(=O)Nc1ccc(S(=O)(=O)N(C)CC(=O)N/N=C/c2ccncc2)cc1	0.35	1.2
NC(=O)NCCc1ccccc1	0.05	1.9
CC(=O)Oc1c(C)c(OC(C)=O)c2c(c1C(C)=O)OC1CC(=O)C(C(C)=O)=C(O)C21C (stereo not given)	1.2	0.69
COc1ccc(-c2csc(Cc3nnc(N4CCOCC4)n3-c3ccccc3)n2)cc1OC	0.14	0.65
CN1C(=O)NC(c2ccc(Cl)cc2)C2=C1CC(C)(C)CC2=O (stereo not given)	0.06	-0.01
Cc1occc1C(=O)NCc1ccco1	0.57	-1.3
COC(=O)Cc1csc(/N=C/c2c(O)n(-c3cccc(C(F)(F)F)c3)c(=O)c3ccccc23)n1	1.2	-1.9
CCN(CC)C(CNS(=O)(=O)c1ccc(Cl)cc1)c1ccccc1 (stereo not given)	0.57	0.71
O=C(Cc1c(F)cccc1Cl)Nc1ccccc1C(=O)N1CCOCC1	0.59	-0.02
NC(=O)COc1ccc(-n2cnnn2)cc1	0.03	-0.11
COc1ccc(CNCc2c(C(=O)N(C)C)nc3ccc(Cl)cn23)c(OC)c1	1.4	-1
CCCN(CCC)C(=O)Cn1c(=O)n(CCCCC(=O)NC2CCCC2)c(=O)c2ccccc21	2	-0.15
COc1ccc(N2CCN(C(=O)c3cccc(NC(=O)c4ccco4)c3)CC2)cc1	1.4	0.31
O=C(CSc1n[nH]c(-c2cccnc2)n1)Nc1ccccc1	1.8	-0.02
CC(C)C(=O)Nc1nnc(CCc2nnc(NC(=O)C(C)C)s2)s1	2.7	0.05
O=P(CCNCc1ccco1)(c1ccccc1)c1ccccc1	1.1	0.19
O=C(COC(=O)c1cccc(-n2cnnn2)c1)c1ccccc1	1.1	-1.7
CCOC(=O)c1c(-c2ccccc2)csc1/N=C/C1C(=O)CCCC1=O	0.68	1
O=C(NC12CC3CC(CC(C3)C1)C2)N1CCN(C(=O)c2ccco2)CC1	0.26	-0.64
COc1ccc(N2CCN(C(=O)c3cccc(Br)c3)CC2)c([N+](=O)[O-])c1	0.07	0.03
Cn1c2ccccc2n2c(=O)c(=O)n(CC(=O)c3ccc(F)cc3)nc12	1.1	0.83

Among those listed so far, these have a thiophene ring, fused or not.
SMILES	KCNQ2 pot	KCNQ2 pot baseline
CC(C)(C)NC(=O)c1cccc(NC(=O)Cc2cccs2)c1	0.8	0.6
CCOC(=O)c1c(-c2ccccc2)csc1/N=C/C1C(=O)CCCC1=O	0.68	1

Other records.
SMILES	KCNQ2 pot	KCNQ2 pot baseline
O=C1N(O)C2(C=CCCC2)/C(=N\O)C12CCCCC2 (stereo not given)	0.05	-0.22
COc1ccc(NC(=O)COC(=O)CCCc2c[nH]c3ccccc23)cc1	1.4	-1.4
COc1ccccc1N1CCN(CC(C)N(C(=O)C2CCCCC2)c2ccccn2)CC1 (stereo not given)	1.1	0.53
CCS(=O)(=O)c1ccc2oc(SCC(=O)NCCc3ccc(F)cc3)nc2c1	0.04	-1.4
Cc1ccc(-c2ccc(NC(=O)C3C4C=CC(C4)C3C(=O)O)cc2)o1 (stereo not given)	0.77	0.47
CCC1CCCCN1CC(=O)c1c(C)[nH]c2cc(C)ccc12 (stereo not given)	0.68	-0.21
Cc1nnc(SCC(=O)c2cc(C)n(-c3c(C)n(C)n(-c4ccccc4)c3=O)c2C)s1	0.65	-0.48
O=C(Cn1c(NCCO)nc2ccccc21)c1ccc(Cl)cc1Cl	0.62	2.6
COc1cccc(CN(C(=O)c2cc3ccccc3oc2=O)C2CC2)c1	0.47	-2.5
COCCn1c(C)cc(C(=O)COC(=O)c2ccc(NC(=O)CC#N)cc2)c1C	0.69	0.1

Laid out differently: results already given
Screens in order: KCNQ2 pot, KCNQ2 pot baseline
Cc1nnc(SCC(=O)c2cc(C)n(-c3c(C)n(C)n(-c4ccccc4)c3=O)c2C)s1
→ 0.65, -0.48
COCCn1c(C)cc(C(=O)COC(=O)c2ccc(NC(=O)CC#N)cc2)c1C
→ 0.69, 0.1
CCS(=O)(=O)c1ccc2oc(SCC(=O)NCCc3ccc(F)cc3)nc2c1
→ 0.04, -1.4
O=C1N(O)C2(C=CCCC2)/C(=N\O)C12CCCCC2 (stereo not given)
→ 0.05, -0.22
O=C(Cn1c(NCCO)nc2ccccc21)c1ccc(Cl)cc1Cl
→ 0.62, 2.6
Cc1ccc(-c2ccc(NC(=O)C3C4C=CC(C4)C3C(=O)O)cc2)o1 (stereo not given)
→ 0.77, 0.47
CCC1CCCCN1CC(=O)c1c(C)[nH]c2cc(C)ccc12 (stereo not given)
→ 0.68, -0.21

Remaining list, next part
SMILES	KCNQ2 pot	KCNQ2 pot baseline
CCN(CC)C(=O)CC(c1ccc(N(C)C)cc1)c1c(O)cc(OC)cc1OC (stereo not given)	0.78	-0.02
Cc1cccc(C(=O)N2CCN(CCNC(=O)C(=O)Nc3ccc(F)cc3)CC2)c1	0.24	0.54
Cc1ccc(N2CC(C(=O)N3CCC(C(=O)Nc4ccc(Br)cc4)CC3)CC2=O)cc1 (stereo not given)	0.29	0.14
Cc1ccc(C)c(S(=O)(=O)Nc2ccccc2C(=O)Nc2ccc(S(=O)(=O)Nc3ncccn3)cc2)c1	0.17	0.26
CCCN(C(=O)CCl)C1=CCCCC1	0.86	1.5
CC(NC(=O)c1ccccc1)c1nnc(SCC(=O)Nc2nnc(C3CC3)s2)n1C (stereo not given)	2.6	-0.85
Cc1cc(C(=O)NN)n[nH]1	0.02	0.37
CC(C)Cn1c(N)c(C(=O)COC(=O)c2ccccc2Cl)c(=O)n(C)c1=O	0.53	0.66
O=C(COc1ccc2c3c(c(=O)oc2c1)CCC3)NCC(O)c1ccccc1 (stereo not given)	0.38	0.02
Cc1ccccc1S(=O)(=O)Cc1ccc(C(=O)NCCN2CCN(Cc3ccccc3)CC2)o1	1.1	-2.7
CC1CCN(S(=O)(=O)c2ccc(C(=O)OC(C)C(=O)N(C)C3CCCCC3)cc2)CC1 (stereo not given)	0.48	1.2
Cc1cc(C)n(-c2cc(N3CCN(S(=O)(=O)c4ccc(C)c(C)c4)CC3)ccc2[N+](=O)[O-])n1	0.52	0.25
O=[N+]([O-])c1ccc(N2CCOCC2)cn1	1	-0.14
O=C(N/N=C/c1ccc2c(c1)OCO2)c1cc2ccccc2o1	0.36	-0.3
COc1ccc(C2CC(c3ccccc3)=NN2C(=O)c2ccc(Cl)c([N+](=O)[O-])c2)cc1 (stereo not given)	0.04	0.32
COc1cc(CNc2ccc3c(c2)OCCO3)ccc1OCC(N)=O	0.31	0.78
Cn1nnnc1SCc1cc(=O)[nH]c2ccccc12	0.17	0.03
CCOC(=O)N1CCN(CCCc2ccccc2)CC1	0.82	-0.46
COCCNC(=O)CSc1nc2c(n1-c1ccccc1)CCCC2	1.1	-2
Cc1ccc(-n2c(C)cc(/C=N/NC(=O)CC3(C)OCCO3)c2C)c(C)c1	0.62	-1.9
CC(=O)N1CCC(N(CCN2CCOCC2)C(=S)Nc2cccc(C)c2)CC1	0.78	-0.09
COc1ccccc1N1CCN(Cc2cc3c(cc2[N+](=O)[O-])OCO3)CC1	0.91	-1.5
COc1cccc(OCCn2cc(/C=N/NC(=O)c3ccncc3)c3ccccc32)c1	0.31	-0.73
CN(Cc1ccccc1)C(=O)c1nc2ccccn2c1CN1CCCC1c1nccs1 (stereo not given)	1.7	0.73
CCOc1cccc(CNc2ccc(O)cc2)c1OCc1ccc(Cl)cc1Cl	1.1	-0.87
CCn1cc(C(=O)N2CCCC2)c(=O)c2cc(S(=O)(=O)N(C)C)ccc21	0.28	0.23
O=Cc1cccn1-c1ncc(Br)cn1	0.29	-0.92
O=C1CC(C(=O)Nc2ccc(Cl)c(Cl)c2)S/C(=N\N=C\c2ccco2)N1 (stereo not given)	1.2	-2.6
Cc1ccc(N2CN(Cc3cccnc3)CNC2=S)c(C)c1	2.3	-0.32
COc1cccc(C(=O)Nc2nnc(S(=O)(=O)N3CCCCC3)s2)c1	1.9	0.23
Cc1nc2ccc(S(=O)(=O)N(C)CC(=O)NCCc3ccccc3)cc2s1	1.1	-0.45
CCn1c(=O)c(C(=O)CN2CCOCC2)c(N)n(Cc2ccccc2)c1=O	1.9	-1.5
CCOC(=O)c1[nH]c(C)c(CCC(=O)OC)c1C	0.61	-0.6
COC(=O)C1=C(O)/C(=C\c2ccc(OCC(=O)Nc3ccccc3)cc2)N=C1C	1.2	0.4
COc1cccc(N(CC(=O)NCCSc2ccccn2)S(C)(=O)=O)c1	0.74	0.12
C/C(Cc1ccccc1)=N\NC(=O)c1ccc(F)cc1	2.8	0.07
CC(=O)Oc1cccc(N2C(=O)c3ccc(C(=O)Nc4cccnc4)cc3C2=O)c1	0.4	-0.03
CN(Cc1ccccc1)C(=O)c1ccccc1NC(=O)C1CC1	1.3	-0.74
CCn1cc(C(=O)N(C)CC(OC)OC)c(=O)c2cc(S(=O)(=O)N3CCOCC3)ccc21	0.05	0.7
CS(=O)(=O)N(CC(=O)N1CCC(C(N)=O)CC1)c1cc(C(F)(F)F)ccc1Cl	0.75	0.06
COc1ccc(-c2csc(NC(=O)CSc3nc(C)nc4sc(C(=O)O)c(C)c34)n2)cc1	1.6	-0.11
Oc1ccc(/C=N/Nc2ncnc3nc[nH]c23)cc1	0.74	1.5
COC(=O)Cc1c(C)c2c(O)cc(C)cc2oc1=O	0.81	1.4
Cc1cc(C)c(S(C)(=O)=O)c(Sc2ccc(Cl)cc2)n1	1.6	0.01
Cn1c(-c2ccc(Br)cc2)cnc1NCc1cccnc1	0.99	-0.71
Cc1c(/C=C/C(=O)c2ccc(O)cc2)cnn1C	0.65	0.15
CCOc1ccc(CC(=O)NNC(=S)NCCc2ccccc2)cc1	2.4	0.15
CC(C)Cn1c(N)c(C(=O)COC(=O)C2CC(=O)N(c3ccc4c(c3)OCCO4)C2)c(=O)n(C)c1=O (stereo not given)	1.2	-1.2
Cc1nc2ccc(S(=O)(=O)NCC(=O)N(C)Cc3ccco3)cc2s1	0.57	-0.01
O=C(Nc1ccccc1Oc1ccsc1C(=O)O)c1ccccc1F	1.2	-0.14

Next section
SMILES	KCNQ2 pot	KCNQ2 pot baseline
CCC(=O)Nc1ccc(S(=O)(=O)Nc2cccnc2)cc1	0.27	-0.03
N#CCc1ccc(Oc2ncc(C(F)(F)F)cc2Cl)cc1	0.34	-1.3
Cc1cccc(Nc2ncnc3ccccc23)c1	0.39	-0.02
CC1=C(C(=O)Nc2cccnc2)C(c2ccncc2)n2nnnc2N1 (stereo not given)	0.02	0.2
CN1c2ccsc2C(O)=C(C(=O)Nc2ccccc2)S1(=O)=O	1.5	-2.5
CCCn1c(N2CCN(Cc3cccc(C)c3)CC2)nc2c1c(=O)[nH]c(=O)n2C	0.82	-0.51
COc1ccc(CNC(=S)NC2CCCC2)cc1	0.39	-1.6
CCN1CC(O)=C(c2nc3ccccc3s2)C1=N	1	0.02
O=[N+]([O-])C(=C1NCCN1)C(Cl)=C(Cl)Cl	0.56	-0.01
S=c1[nH]c(-c2ccccc2)cn1/N=C/c1cccnc1	1.1	0.22
CCCCN(CCCC)C(=S)NC(=O)c1ccccc1Cl	19*	-0.81*
COc1cccc(CC(=O)Nc2ccc(S(=O)(=O)Nc3nc(C)cc(C)n3)cc2)c1	0.76	-0.58
CN(C)c1nc2ncn(Cc3ccccc3)c2c(=O)[nH]1	1.9	0.14
COc1cc(CC(=O)Nc2cccc(SC)c2)cc(OC)c1OC	1	0.1
COc1ccc(S(=O)(=O)NC2CCCC2)c(OC)c1	0.33	0.14
Cc1ccc(NC(=O)COC(=O)C2CCC(=O)N2)c([N+](=O)[O-])c1 (stereo not given)	0.6	2.7
Cc1ccc(C(=O)Nc2ncc(Cc3ccccc3)s2)o1	0.99	-0.59
